# Cruzain noTriton = blocks cruzain activity in detergent-free assay | P25779 | purified cruzain, Z-FR-AMC fluorescence, no detergent | Potency, µM, for inactives: max response, negative = inhibition, usual class: inhibitors | 200,000 tested, 2.3% active; active means well fitted curve in the direction sought with a large enough effect; inconclusive means small, poorly fitted or top-dose-only effect, or another doubt; inactive means no such curve, though single readings can be large; an effect the other way counts as inactive or inconclusive;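 further: plate controls were enzyme without inhibitor for no effect and buffer without enzyme for full effect; nearly all actives have a fitted effect of over 40% in size; top concentration of the series not given in the record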
# Target sequence (P25779 123-467 limits assumed): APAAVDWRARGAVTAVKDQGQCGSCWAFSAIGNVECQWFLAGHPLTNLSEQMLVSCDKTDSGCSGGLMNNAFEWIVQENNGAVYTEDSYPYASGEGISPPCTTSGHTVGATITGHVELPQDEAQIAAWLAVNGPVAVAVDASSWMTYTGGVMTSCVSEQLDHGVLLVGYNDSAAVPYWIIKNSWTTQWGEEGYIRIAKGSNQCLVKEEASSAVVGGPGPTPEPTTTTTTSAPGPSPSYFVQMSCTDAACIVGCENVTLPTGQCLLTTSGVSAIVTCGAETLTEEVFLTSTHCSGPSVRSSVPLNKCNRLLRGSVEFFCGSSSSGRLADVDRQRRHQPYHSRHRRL
#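 Detergent-free condition (0.00005% Triton X-100) in acetate buffer pH 5.5 with DTT. 1.5 nM enzyme and compound were pre-mixed 15 min, then 2 uM Z-FR-AMC substrate added; reaction progress from fluorescence change between first and third reads (60 s).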
# Cruzain inh Det = inhibitors of Trypanosoma cruzi cruzain with detergent; P25779; Potency, µM, for inactives: max response, negative = inhibition, actives largely listed as inhibitors; purified cruzain, Z-FR-AMC fluorescence, 0.01% Triton; 200,000 tested, 0.43% active; active means well fitted curve in the direction sought with a large enough effect; inconclusive means small, poorly fitted or top-dose-only effect, or another doubt; inactive means no such curve, though single readings can be large; an effect the other way counts as inactive or inconclusive;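 further: plate controls were neutral wells for no effect and buffer without enzyme for full effect; nearly all actives have a fitted effect of over 40% in size; top concentration of the series not given in the record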
#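 Read-out: AMC fluorescence (360 nm excitation, 450 nm emission), four reads over 2 min, first-to-third difference used. Conditions: cruzain 1.5 nM, Z-FR-AMC 2 uM, pH 5.5 acetate, 5 mM DTT, 0.01% Triton X-100.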
# MARV entry inh = blocks Marburg virus binding to or entry into cells | Potency, µM (series often up to 37.8 µM), for the others: at the highest dose activity change, negative = inhibition, hits mostly inhibitors | Marburg virus pseudotyped entry inhibition, cell reporter; control for the full effect not named in the record; about a third of the inactives were read at about 46 µM | 300,000 tested, 1.8% active; active = well fitted inhibition curve with a large enough effect; inconclusive = small, poorly fitted or top-dose-only effect, or effect the other way; inactive = flat fitted curve, though single readings scatter; tested in HEK293 cells; about a fifth of its hits are not listed in these tables; further: on the % scale 0 is the no-effect control and ±100 the full control effect; luciferase read-out
# Lassa entry inh = blocks Lassa virus binding to or entry into cells; AID 540256; Potency, µM (series often up to 37.9 µM), without a hit: at the highest dose activity change, negative = inhibition, usual class: inhibitors; 300,000 tested, 1.2% active; Lassa virus pseudotype entry inhibition, cell reporter; control for the full effect not named in the record; active means well fitted inhibition curve with a large enough effect; inconclusive means small, poorly fitted or top-dose-only effect, or effect the other way; inactive means flat fitted curve, though single readings scatter; tested in HEK293 cells; further: on the % scale 0 is the no-effect control and ±100 the full control effect; nearly all actives have a fitted effect of over 50% in size; luciferase read-out
# 2A StopGo = FMDV 2A StopGo reporter, luciferase signal | human cells with a luciferase reporter of 2A StopGo recoding; control for the full effect not named in the record | Potency, µM (top dose mostly 57.9 µM), for inactives: top-dose signal change, negative = less light | 410,000 tested, 1.2% active; active = well fitted falling curve with a large enough effect; inconclusive = small, poorly fitted or top-dose-only effect; inactive = no such curve, though single readings can be large or run the other way; tested in HEK293T cells; further: on the % scale 0 is the no-effect control and ±100 the full control effect; nearly all actives have a fitted effect of over 45% in size; luciferase light after 4 h
# NS1 function inh = blocks influenza NS1 protein function; 270,000 tested, 0.4% active; Potency, µM (top dose mostly 46.1 µM), for the others: at the top dose activity, positive = more growth; AID 2326; S. cerevisiae slowed by influenza A NS1, growth recovery by OD600; further: actives are rising curves; nearly all actives have a fitted effect of over 50% in size
#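 Growth recovery, yeast-based: influenza A NS1 expressed in S. cerevisiae causes slow growth, and suppressors are detected by OD600. The parent strain without NS1 is used as positive control.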
# RE007 growth inh = less growth of the S. pombe RE007 Vpr strain; 360,000 tested, 0.21% active; S. pombe RE007 Vpr strain, BacTiter-Glo ATP luminescence, 24 h; control for the full effect not named in the record; Potency, µM (series often up to 92.2 µM), without a hit: at the top dose activity change, negative = less growth; active = well fitted falling curve with a large enough effect; inconclusive = small, poorly fitted or top-dose-only effect; inactive = no such curve, though single readings can be large or run the other way;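 further: on the % scale 0 is the no-effect control and ±100 the full control effect; nearly all actives have a fitted effect of over 50% in size; the assay follows cell death caused by Vpr and the record does not say whether a fall means rescue or toxicity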
#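 Fission yeast strain RE007, carrying one chromosomally integrated HIV-1 vpr copy, was seeded at OD 0.01 in PMG+AL medium with 23 nL pinned compound. After 24 h at 30 °C and 99% humidity, viability was read by BacTiter-Glo luminescence.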
# SARS PLP yeast = inhibitors of SARS-CoV papain-like protease in yeast; S. cerevisiae expressing SARS-CoV PLpro, growth rescue; control for the full effect not named in the record; Potency, µM (doses to about 32.9 µM), for the others: top-dose activity, positive = growth rescue; 330,000 tested, 0.19% active; further: 0% is about no effect; nearly all actives have a fitted effect of over 55% in size; growth read by luminescence after 48 h
# An asterisk follows results filed as active; ? = inconclusive; / = no result given; & = joins results of further samples; [ ] = remark or other dose. Unless noted, the call rests on the fitted dose curve; in most records, active means well fitted rising curve with a large enough effect; inconclusive means small, poorly fitted or top-dose-only effect; inactive means no such curve, though single readings can be large or run the other way. Potency means the concentration at half of the fitted maximal effect. Random draw from the library; any-hit rate near 4.7%.
SMILES,Cruzain noTriton,Cruzain inh Det,MARV entry inh,Lassa entry inh,2A StopGo,NS1 function inh,RE007 growth inh,SARS PLP yeast
CCCN=C1NC(=O)C(CC(=O)NCCc2ccccc2)S1 (stereo not given),/,/,14%[46.1 µM],-18%,1%,/,-8%,-1%
O=C1CCCC2=C1C(c1cn(-c3ccccc3)nc1-c1cccs1)c1c([nH]c(=O)[nH]c1=O)N2 (stereo not given),13µM*,14µM*,0%,6%,/,2%,-1%,3%
Cc1nc2ccc(F)cc2cc1C(=O)NCc1ccco1,-2%,-0.5%,17%,5%,-24%,-4%,-8%,2%
Cc1ccc(C(=O)Nc2cccc(-c3ccc(N4CCOCC4)nn3)c2)cc1C,/,/,0%[46.1 µM],-14%,-6%,/,24%,0%
COc1ccc(N(CC(=O)NCc2ccco2)C(=O)CCC(=O)Nc2nccs2)cc1,/,/,-4%[46.1 µM],-13%[46.1 µM],-1%,24%,0%,0%
COc1ccc(/C=C(/NC(=O)c2ccc(C)cc2)c2nc3ccccc3[nH]2)cc1OC,?,-10%,-3%,7%,12%,12%,4%,-2%
O=C(O)c1ccc(NC(=S)Nc2ccc(S(=O)(=O)Nc3ccccn3)cc2)cc1,/,/,-2%[46.1 µM],?,19%,/,4%,/
O=C(COc1cccnc1[N+](=O)[O-])Nc1ccc(Cl)cc1F,/,/,17%[46.1 µM],-13%[46.1 µM],30%[activator],/,-11%,20%
COc1ccc(OC)c(Nc2nc(-c3cccc([N+](=O)[O-])c3)nc3ccccc23)c1,-5%,4.8%,9%,4%,5%,17%,-9%[3.69 µM],2%
Cc1ccc(Nc2c(-c3cccnc3)nc3ccc(C)cn23)cc1,-1%,-3.0%,1%[46.1 µM],?,-9%,/,/,/
CCCCOc1ccc(Cn2c(=O)oc3ccc(C)cc32)cc1,12%,-2.9%,-29%[46.1 µM],-5%[46.1 µM],-3%,/,/,/
Cc1cccc(C)c1NC(=O)Nc1ccc(S(N)(=O)=O)cc1,-2%,1.4%,/,/,-23%,-6%&6%,/,1%
COc1cccc(/C=N/NC(=O)CN2C(=O)NC3NC(=O)NC32)c1 (stereo not given),-1%,1.6%,21%,-2%,-11%,-4%,15%,-4%
O=C(Nc1ccccc1Cl)Oc1ccc(Cl)cc1Cl,/,/,/,/,-4%,3%,-2%,0%
COCCn1c(SCC(=O)Nc2cc(C)on2)nnc1-c1ccccc1,/,/,3%[46.1 µM],28%[46.1 µM],-9%,5%,-8%,-1%
CCOc1ccc(CCNC(=O)c2cc3ccccn3n2)cc1OCC,-2%,0.1%,/,/,?,-12%,3%,-1%
CC(=O)NC(Cc1c[nH]c2ccccc12)C(=O)N/N=C/c1ccccc1 (stereo not given),/,/,?,?,-7%,-2%,7%,0%
COC(=O)c1cc(C(=O)N(Cc2ccccc2)c2ccccn2)cc([N+](=O)[O-])c1,-1%,-2.4%,-21%,-1%,25%,-18%,-15%,-4%
CCC(C)NC(=O)[C@H]1N2C(=O)c3ccccc3C2SC1(C)C (stereo not given in full),/,/,/,/,-17%,6%,15%,-1%
CCCCc1n[nH]c2c1/C(=N/O)CC(C)(C)C2,6%,1.4%,22%,-5%,4%,1%,-5%,6%
Cc1cc(NC(=O)CSc2nc3cc(Cl)ccc3c(=O)n2C(C)C)no1,/,/,-13%,1%,-12%,/,0%,-4%
COC(=O)c1ccc(Cc2ccccc2)o1,0%,2.2%,-7%,-1%,22%,3%,23%,-6%
O=C(Nc1ccc(Cl)c(Cl)c1)c1cc(S(=O)(=O)N2CCN(c3cccc(Cl)c3)CC2)ccc1F,3.2µM*,0.5%,/,?,2%,/,/,/
O=C1C2C3C=CC(O3)C2C(=O)N1CC(O)c1ccccc1 (stereo not given),-11%,2.6%,8%,7%,-12%,-6%,-15%,-8%
Cc1cc2n(n1)C(c1sccc1C)Nc1ccccc1-2 (stereo not given),-3%,-3.8%,8%,9%,4%,-13%,-22%,-3%
O=C(Cn1cc2c(n1)CCCC2)Nc1cc(C(F)(F)F)ccc1Cl,-1%,-3.6%,28%[46.1 µM],11%[46.1 µM],0%,/,/,/
CN1/C(=C\C(=O)COc2ccc3c(c2)OCO3)C(C)(C)c2ccccc21,?,-6.0%,-1%,-18%,25µM*,-44%,-17%,-15%
CCOc1ccccc1NC(=O)c1nn(C)c2c1CSc1ccccc1-2,-14%,-4.8%,?,-8%[46.1 µM],15%,/,/,/
COCc1cc(=O)n2c([nH]c3ccccc32)c1C#N,?,0.8%,?,7%,/,-3%,9%,-2%
CCOC(=O)c1ccccc1OCc1cc(/C=N/NC(=O)c2cccnc2)ccc1OC,/,/,?,?,?,-9%,-3%,-1%
Cc1ccc(-c2noc(-c3nnn(-c4ccc(Br)cc4F)c3C)n2)cc1,3%,3.2%,/,25%[46.1 µM],32%[activator],/,/,/
CCc1ccc(CNC(=O)CCc2cn(C)c3ccccc23)cc1,/,/,/,/,-4%,-7%,-5%,-3%
O=C(N/N=C1\C2CN3CCN(C2)CC1(c1ccccc1)C3)Nc1ccccc1,/,/,4%[46.1 µM],0%[46.1 µM],38%[activator],/,-21%,-1%
Cc1cc(C)cc(C(=O)Nc2cc(C(F)(F)F)ccc2N2CCN(c3ccccc3)CC2)c1,-4%,0.5%,4%[46.1 µM],6%[46.1 µM],?,/,/,/
O=c1[nH]cc(S(=O)(=O)N2CCOCC2)c(=O)[nH]1,/,/,-3%[46.1 µM],2%,3%,/,-17%,1%
Cc1cccc(N(CC(=O)Nc2ccc(Br)cc2)S(C)(=O)=O)c1C,15%,1.3%,/,?,31%[activator],/,/,/
COCc1nnc(NC(=O)C(C)C)s1,2%,-2.4%,-1%,6%,3%,4%,-10%,4%
CCCn1nnnc1NCc1c(F)cccc1Cl,/,/,/,/,33%[activator],-2%,-2%,0%
Cc1ccc(S(=O)(=O)N2CCOCC2)cc1NC(=O)COC(=O)c1ccc(Br)o1,/,/,8%,9%,4%,/,10%,/
O=C1NC(=S)NC1=Cc1ccccc1O,/,/,29%[46.1 µM],-10%[46.1 µM],22%,/,2%,/
COc1cccc(CNC(=O)CCc2c(C)c3ccc(O)c(C)c3oc2=O)c1,-20%,?,?,4%[46.1 µM],-15%,/,/,/
O=C(NCCN1CCCC1)c1ccc(CS(=O)(=O)c2c(Cl)cccc2Cl)o1,5%,-4.5%,/,/,-23%,11%,-21%,0%
Cc1cccc(N=Nc2c(C)c(C#N)c(O)[nH]c2=O)c1,/,/,?,20%,36%[activator],-1%,-10%,-1%
Cc1ccc(CCNC(=O)C2CC(c3ccc(C(F)(F)F)cc3)=NO2)cc1 (stereo not given),/,/,/,/,2%,4%,10%,1%
N/C(=N\OC(=O)c1ccc(Br)cc1)c1ccncc1,/,/,?,13%[46.1 µM],18%,/,-3%,-2%
CC(=O)Nc1cccc(NC(C)=C(C#N)C#N)c1,-16%,-4.4%,0%,-4%,-11%,-6%,-7%,15%
O=S(=O)(c1ccccc1)N1C2CCC1CC(O)(c1cccnc1)C2 (stereo not given),0%,3.6%,11%[46.1 µM],-3%,2%,2%,-15%,2%
Cc1cc(/C=C(\C#N)C(=O)O)c(C)n1CCC(C)C,/,/,8%,3%,-4%,-6%,0%,5%

# The closing 3 records of the part above lead into the next:
SMILES,Cruzain noTriton,Cruzain inh Det,MARV entry inh,Lassa entry inh,2A StopGo,NS1 function inh,RE007 growth inh,SARS PLP yeast
CC(=O)Nc1cccc(NC(C)=C(C#N)C#N)c1,-16%,-4.4%,0%,-4%,-11%,-6%,-7%,15%
O=S(=O)(c1ccccc1)N1C2CCC1CC(O)(c1cccnc1)C2 (stereo not given),0%,3.6%,11%[46.1 µM],-3%,2%,2%,-15%,2%
Cc1cc(/C=C(\C#N)C(=O)O)c(C)n1CCC(C)C,/,/,8%,3%,-4%,-6%,0%,5%
O=C(COC(=O)c1ccc2ccccc2n1)NCc1ccccc1,/,/,/,/,-17%,-6%,1%,-3%
O=C(NCC(=O)N(Cc1ccccc1)C(C(=O)NC1CCCC1)c1cccnc1)c1ccco1 (stereo not given),-13%,-2.3%,?,14%,2%,-2%,14%,0%
COc1ccc(NC(=O)Cn2cc(C(=O)c3ccccc3)c(=O)c3cc(OC)ccc32)c(OC)c1,8%,-3.1%,8%[46.1 µM],1%[46.1 µM],-5%,/,/,/
N#CCCn1cc(C(=O)Nc2ccccc2Br)c(-c2ccc3c(c2)OCCO3)n1,18%,-8.2%,-10%,5%,-14%,1%,33%,?
COc1cc(OC)cc(C(=O)N[C@H](C(=O)Nc2ccc(F)cc2F)C(C)C)c1,/,/,/,/,-10%,2%,2%,0%
O=C(CSc1nnc(CNC(=O)c2ccccc2F)o1)NCCc1ccccc1,-6%,-0.2%,-1%,3%,-6%,-5%,6%,3%
COc1cccc(CNS(=O)(=O)c2c(C(=O)N3CCC(C)CC3)c(C)n(C)c2C)c1,-7%,0.1%,/,15%[46.1 µM],31%[activator],/,/,/
Cc1ccc2c(c1)N(C(=O)N1CCC(C(=O)NCc3ccco3)CC1)CC(C)O2 (stereo not given),1%,-2.6%,/,17%[46.1 µM],-17%,/,/,/
CCOc1ccc(S(=O)(=O)NCCc2sc3nc(-c4ccc(C)cc4)nn3c2C)cc1,?,-6.0%,/,?,5%,/,/,/
Cc1ccn2c(=O)cc(C)nc2c1,/,/,12%[46.1 µM],/,-2%,/,11%,-1%
CN(C(=O)COC(=O)c1cc(-c2ccco2)nc2ccccc12)C1CCS(=O)(=O)C1 (stereo not given),/,/,/,/,-21%,11%,-2%,-1%
CCCN=C1CC(C)(C)CC(=O)/C1=C(/O)CCC,/,/,?,9%,-21%,-1%,2%,1%

# Compound activity from PubChem.
